Screening data (PubChem BioAssay)
HNF4A DNA FP = change in binding of human HNF4 alpha to DNA; P41235; HNF4a-FITC DNA binding, fluorescence polarization, 1 h; activity change, % at 10 µM; 360,000 compounds, 0.3% hits; AID 1224865; in the data active = activity change above about 30%, passing the limit was not always enough;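 note: controls were the assay level and a saturating level of protein; the project sought stronger binding though the title names inhibitors; some compounds called inactive have numbers as strong as hits; positive values seem to mean higher polarization but the record does not say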
Target sequence (P41235 whole entry, looked up): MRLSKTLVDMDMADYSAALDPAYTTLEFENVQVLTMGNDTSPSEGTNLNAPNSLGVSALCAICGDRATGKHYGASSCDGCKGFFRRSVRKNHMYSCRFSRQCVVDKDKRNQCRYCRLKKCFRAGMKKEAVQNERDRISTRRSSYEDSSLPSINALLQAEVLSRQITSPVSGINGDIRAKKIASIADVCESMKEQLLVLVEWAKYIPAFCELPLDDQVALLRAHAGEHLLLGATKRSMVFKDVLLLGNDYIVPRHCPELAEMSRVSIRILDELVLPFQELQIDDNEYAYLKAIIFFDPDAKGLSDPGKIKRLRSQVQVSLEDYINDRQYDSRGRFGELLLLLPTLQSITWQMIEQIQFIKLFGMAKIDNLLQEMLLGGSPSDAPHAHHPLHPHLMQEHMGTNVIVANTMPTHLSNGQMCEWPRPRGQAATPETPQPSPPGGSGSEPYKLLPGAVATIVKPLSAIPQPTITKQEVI
A1 inh = inhibitors of the anti-apoptotic protein A1, read as caspase activation; caspase activation, % (no concentration beside the values); MEF A1-2A-BIM cells, Caspase-Glo 3/7 luminescence, 3 h; percent of clofoctol response, vehicle zero; 330,000 compounds, 0.066% hits;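 active = over half of replicate activation scores above 10%, or exactly half above 10 with the replicate mean above 10; inconclusive = replicate mean below 10 yet half the replicates above 10; inactive = over half of replicates below 10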;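 note: wells of about 30 µL received 50 nL stock; many hits fall short of the cut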
B2AR ag = human beta-2 adrenergic receptor agonism by FAP; P07550; Am2.2-beta2AR cells, FAP receptor internalization, flow cytometry; reference of the scale not given here; AID 504454; response, % (test concentration not listed); 340,000 compounds, 0.43% hits;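 active = response above a set limit, near 3 SD of response in nonfluorescent compounds, cut at about 42% in these data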;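 note: stock transfer was 100 nL into about 11 µL; a reference agonist was the positive control; negative values mostly stem from fluorescent compounds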
Ecoli growth = inhibitors of Escherichia coli growth; AID 1053175; OD600, 23 h; hits give low values; 330,000 compounds, 0.21% hits; OD600 absorbance (concentration not given with the values);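 active = OD600 absorbance below the run mean of sample wells minus 3.6 SD, in any replicate, cut at about 0.56 in these data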;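 note: stock transfer was 300 nL into about 60 µL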
Vif A3G = inhibitors of Vif binding to APOBEC3G peptide, primary screen, biochemical, TR-FRET, GST-Vif 1-94, biotin-A3G peptide, dose response retest (AID 1117319) | TR-FRET GST-Vif / biotin-A3G peptide binding; higher % means a stronger effect; test concentration not given here; strong numbers were not always called active | inhibition, %; hits with a dose series show IC50 in µM | 260,000 compounds, 0.57% hits;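 active = above the screen mean plus three standard deviations and confirmed in dose response; inconclusive = results disagree or hit not tested in dose response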;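 note: Vif residues 1-94 fused to GST binding biotinylated APOBEC3G peptide 110-148; 0% = full assay without inhibitor and 100% = GST in place of GST-Vif; retest series ran down from 100 µM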
LANA-H2B inh = blocks KSHV LANA binding to histone H2A/H2B | inhibition, % (no concentration beside the values) | AID 2629 | 320,000 compounds, 0.6% hits | cell-free LANA-H2A/H2B peptide, fluorescence polarization; in the data active = inhibition mostly above about 10%, no sharp cut-off; inactive = mostly below about 6.7%;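 note: stock transfer was 7.5 nL into about 10 µL; 0% = median of vehicle wells and 100% = median of positive control wells; one replicate is shown; the record names a cut of 25% in any replicate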
UCH37 DUB inh = blocks the human deubiquitinase UCH37 | Q9Y5K5 | purified proteasome/UCH37, Ub-AMC cleavage fluorescence | inhibition, % (test concentration not listed) | 330,000 compounds, 0.33% hits;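 active = mean of two replicates above 20%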;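 note: 0% = compound-free wells with enzyme and 100% = wells lacking proteasome; stock transfer was 100 nL into about 20 µL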
Target sequence (Q9Y5K5 whole entry, looked up): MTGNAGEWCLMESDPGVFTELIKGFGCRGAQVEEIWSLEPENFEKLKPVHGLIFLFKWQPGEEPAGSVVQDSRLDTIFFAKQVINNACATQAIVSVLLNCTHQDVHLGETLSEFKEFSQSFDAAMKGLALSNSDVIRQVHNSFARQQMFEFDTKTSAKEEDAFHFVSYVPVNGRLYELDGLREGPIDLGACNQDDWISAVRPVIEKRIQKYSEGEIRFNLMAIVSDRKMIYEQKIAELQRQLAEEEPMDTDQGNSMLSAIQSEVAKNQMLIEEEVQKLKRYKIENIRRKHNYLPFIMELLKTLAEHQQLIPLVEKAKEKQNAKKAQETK
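Material: Human UCH37 enzyme supplied as purified proteasome complex | Schedule: 30 min compound-proteasome preincubation then 25 min substrate reaction, room temperature | Detection: AMC fluorescence from Ub-AMC cleavage, excitation 355 nm, emission 460 nm | Benchmarks: Wells without proteasome as full block, compound-free enzyme plus substrate as uninhibited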
* hit, by the source's call; i = inactive; ? = inconclusive; · = no result given; & = joins results of further samples.

nr | Structure | HNF4A DNA FP | A1 inh | B2AR ag | Ecoli growth | Vif A3G | LANA-H2B inh | UCH37 DUB inh
1 | O=C(NC1CCCCC1)C1CC(=O)N(c2ccccc2)C1 (stereo not drawn) | -0.8 | 0.2 | -15 | 0.69 | · | -1.5 | 1.4
2 | C/C(=N/NC(=O)c1cc(C(C)C)[nH]n1)c1cccs1 | -1.8 | -9.7 | -13 | · | 2% | -1.4 | ·
3 | CCOc1cc(N2CCOCC2)c(OCC)cc1NC(=O)CN1C(=O)NC(C)(C2CC2)C1=O (stereo not drawn) | 0.8 | 0.0 | -1 | 0.66 | -3% | -1.6 | 6.0
4 | N#C/C(=C/c1ccc(-c2ccc(S(N)(=O)=O)cc2)o1)c1nc2ccccc2s1 | 107 | -1.7 | i | 0.73 | -12% | -2.3 | 1.8
5 | CCN1C(=O)c2cccc3c(S(=O)(=O)Nc4ccccc4)ccc1c23 | 1.2 | 2.1 | -7 | 0.71 | 3% | 0.9 | -9.4
6 | Cc1ccc(NC2=CC(=O)CC(C)(C)C2)c(N)c1 | -26 | 1.0 | 14 | 0.76 | 4% | 6.8 | 4.3
7 | COc1ccc2[nH]c(=O)c(C(c3nnnn3CC3CCCO3)N3CCCCC3)cc2c1 (stereo not drawn) | -3.4 | 0.5 | -4 | 0.69 | -4% | -0.3 | -124
8 | CN(C)CCCN(C(=O)c1ccc2c(c1)OCCO2)c1nc2cc3c(cc2s1)OCO3 | 3.8 | 1.4 | 2 | 0.72 | · | 1.7 | 3.3
9 | O=C(COc1ncnc2sccc12)NC1CCS(=O)(=O)C1 (stereo not drawn) | -0.9 | 2.2 | -8 | 0.74 | -10% | 2.8 | -3.1
10 | Cc1cccc(C(=O)OCC(=O)NCC(C)C)c1O | 2.4 | 0.2 | 4 | 0.7 | 29% | -9.2 | 2.0

An excerpt from above with just B2AR ag:
cpd	canonical_smiles	B2AR ag
4	N#C/C(=C/c1ccc(-c2ccc(S(N)(=O)=O)cc2)o1)c1nc2ccccc2s1	i
5	CCN1C(=O)c2cccc3c(S(=O)(=O)Nc4ccccc4)ccc1c23	-7

Continued.
nr | Structure | HNF4A DNA FP | A1 inh | B2AR ag | Ecoli growth | Vif A3G | LANA-H2B inh | UCH37 DUB inh
11 | COc1ccc(Oc2nc(C)cc(C)c2C#N)cc1 | 8.5 | 0.7 | -5 | 0.71 | 59µM* | -2.1 | -0.3
12 | O=C(/C=C/Nc1cccc(O)c1)c1ccccc1 | 11 | -7.5 | 9 | 0.7 | 1% | 0.7 | 0.6
13 | Cc1nc2c(sc(=S)n2Cc2ccco2)c(=O)n1CC(=O)Nc1cc(F)ccc1F | -6.6 | 0.6 | -1 | 0.71 | · | -3.1 | 1.8
14 | Cc1cc(C(F)F)n2nc(C(=O)Nc3sc4c(c3C#N)CCC(C)C4)nc2n1 (stereo not drawn) | 2.8 | 0.1 | -12 | 0.69 | -2% | 0.3 | -22
15 | CCOc1ccccc1N=Cc1c(O)c2ccccc2oc1=O | 2.0 | 2.3 | -8 | 0.69 | · | -0.1 | -65
16 | Cc1nc(C)c(-c2ccccc2)c(=O)[nH]1 | 2.1 | 0.6 | 6 | 0.75 | -4% | 0.9 | 6.3
17 | CCOC(=O)c1sc2ncn(/N=C/c3ccc(O)cc3)c(=O)c2c1C | 3.2 | 0.5 | 9 | · | · | 6.2 | ·
18 | Cc1nn(-c2ccccn2)c2nc(-c3cccs3)cc(C(=O)N3CCOCC3)c12 | 4.0 | 0.5 | -4 | 0.73 | 5% | 0.7 | i
19 | Cc1ccc(-c2nc3sc(C(N)=O)c(N)c3c3c2CCCC3)cc1 | 1.1 | 0.3 | 9 | 0.7 | -21% | 4.2 | -125
20 | S=C(NC1CCCCC1)c1ccc2c(c1)OCO2 | 0.5 | 0.3 | -5 | 0.68 | 3% | -5.5 | 3.7
21 | COc1ccc(N2C(=O)CCC(C(=O)c3ccccc3)=C2C)cc1 | -1.5 | 0.8 | 3 | 0.67 | 1% | 1.6 | 7.9
22 | Cc1ccc(SCC(=O)N2N=CCC2c2ccccc2)cc1 (stereo not drawn) | 1.7 | -0.5 | 0 | 0.72 | -6% | 1.4 | 3.3
23 | CCOc1ccccc1NC(=O)COC(=O)CCOc1cc(C)ccc1C | 4.1 | -0.4 | 2 | 0.72 | 2% | -1.6 | 2.4
24 | CCCOc1ccc(-c2csc3nc[nH]c(=O)c23)cc1 | 0.8 | 0.5 | -8 | 0.67 | · | -5.2 | 0.8
25 | CN1CCN(c2nc(Nc3ccccc3)nc(N)c2[N+](=O)[O-])CC1 | 3.0 | 0.4 | -7 | 0.68 | ? | -1.0 | 13
26 | O=C(c1ccc(Cl)c(S(=O)(=O)N2CCCC2)c1)N1CCN(Cc2ccccc2)CC1 | -2.8 | · | 0 | 0.71 | · | · | 5.5
27 | O=C1CCC(C(=O)N2CCc3ccccc3C2)CN1CCCN1CCOCC1 (stereo not drawn) | 0.9 | -0.3 | 5 | 0.71 | · | -3.7 | 4.1
28 | Nc1cc(=O)[nH]c(SCC(=O)Nc2cccc([N+](=O)[O-])c2)n1 | -1.3 | 0.3 | -1 | 0.71 | 0% | -1.6 | -0.7
29 | Cc1ccc(Nc2nnc(SCC(=O)NCCN3C(=O)CSC3=O)s2)cc1C | 0.7 | -7.0 | 1 | 0.7 | 19% | 1.3 | -0.6
30 | O=C(N/N=C/c1cc(Br)cc(Br)c1O)c1cccc(S(=O)(=O)N2CCOCC2)c1 | 85 | 0.6 | -85 | · | -13% | 6.2 | ·
31 | NC(=O)c1ccsc1NC(=O)COC(=O)[C@@H]1CCCN1C(=O)c1cccs1 | 1.4 | · | 2 | 0.69 | 4% | · | 0.1
32 | CC1CCN(C(=O)c2ccc(NS(C)(=O)=O)cc2)CC1 | -0.3 | -0.6 | -3 | 0.71 | -5% | -3.0 | 7.6
33 | O=C(Cc1ccc([N+](=O)[O-])cc1)Nc1ccc2c(c1)OCO2 | -0.5 | 1.4 | -11 | 0.71 | -1% | 0.8 | 1.5
34 | CC(NC(=O)c1ccc2ccccc2n1)c1ccc(S(N)(=O)=O)cc1 (stereo not drawn) | 3.2 | -1.7 | 4 | 0.71 | · | -2.3 | 4.2
35 | Cc1cccc(NC(=S)NCc2ccc3[nH]c4c(c3c2)CCCC4)c1 | -1.0 | · | 12 | 0.79 | -1% | 0.2 | 0.0
36 | Cc1cc(NC(=O)CC(F)(F)F)n(-c2ccccc2)n1 | -2.4 | -0.2 | -3 | 0.66 | -12% | 7.6 | 2.0
37 | CSc1ccc(CN(C)CC(=O)Nc2ccc(NC(C)=O)cc2)cc1 | 0.4 | 1.5 | -8 | 0.69 | -2% | 1.7 | 3.0
38 | CC(=O)c1ccc(-n2nnnc2SCC(=O)N2CCc3ccccc3C2)cc1 | -2.8 | · | -2 | · | 19% | · | ·
39 | COc1ccc(S(=O)(=O)N(C)C[C@@H]2Oc3c(NS(C)(=O)=O)cccc3C(=O)N([C@@H](C)CO)C[C@H]2C)cc1 | -2.2 | 0.3 | 3 | 0.75 | -11% | 4.3 | 1.5
40 | CCNc1nc(Oc2ccc(=O)n(C)n2)nc(N2CCOCC2)n1 | -0.7 | 0.5 | 3 | 0.72 | 3% | -0.1 | 2.5
41 | COc1ccc(C(=O)NCc2nnc(SCC(=O)Nc3cccc(C(F)(F)F)c3)o2)cc1OC | -3.2 | 0.5 | -19 | 0.69 | -1% | 1.4 | 1.6
42 | COc1ccc(OC(C)C(=O)Nc2ccccc2C(F)(F)F)cc1 (stereo not drawn) | 4.0 | 1.2 | 6 | 0.66 | -5% | 0.4 | 2.9
43 | COCCn1nnnc1C(c1ccc(Cl)cc1)N1CCSCC1 (stereo not drawn) | 0.6 | -0.1 | -5 | 0.65 | 0% | -0.3 | 4.3
44 | COc1ccccc1C(=O)Nc1ccc2c(c1)OCO2 | 1.0 | -4.7 | -4 | 0.62 | -1% | 1.6 | 4.9
45 | O=C1C(Cl)=C(Nc2ccc(O)cc2)C(=O)c2ccccc21 | 0.6 | 0.0 | 73* | 0.67 | ? | 0.3 | 5.8
46 | CC(C)(C)c1nn2cnnc2n(/N=C/c2ccccc2)c1=O | -1.1 | 1.4 | -2 | · | 21% | 3.5 | ·
47 | O=C(OCC(=O)N1CCOCC1)c1cc(F)c(F)cc1Cl | 3.0 | -0.7 | 0 | 0.66 | -6% | 9.0 | -1.2
48 | CCOC(=O)Cn1c2ccccc2c2nc(C)sc21 | 0.2 | 0.4 | 3 | 0.73 | -15% | -1.6 | 4.2
49 | COc1cc(/C=C/c2cccc[n+]2C)ccc1OCC(=O)Nc1cccc(Cl)c1 | -0.9 | -0.4 | 2 | 0.66 | · | 1.0 | -15
50 | C=C(C)CN1C(=O)C(O)(CC(=O)c2ccc3c(c2)OCCO3)c2ccccc21 (stereo not drawn) | 1.9 | 0.1 | -4 | 0.71 | -3% | -1.2 | 6.6
51 | O=C1CC(N2CCOCC2)C(=O)N1c1ccccc1Cl (stereo not drawn) | -1.7 | -0.7 | -2 | 0.69 | -2% | 10 | 1.1
52 | CN(N=C(c1ccccc1)c1ccccc1)c1ccccc1 | 3.3 | · | -3 | 0.69 | 1% | · | -1.3
53 | COc1ccccc1NS(=O)(=O)c1cccc(NC(=O)c2nc3nc(C)cc(C)n3n2)c1 | 1.3 | -0.8 | -2 | 0.76 | 1% | -6.1 | 5.7
54 | Cc1cc(C)n2nc(C(=O)Nc3nccs3)nc2n1 | -0.9 | 1.2 | -18 | 0.64 | ? | -2.8 | 3.7
55 | COc1ccc(N(CC(=O)NCCc2cccc(C)c2)S(=O)(=O)c2c(C)noc2C)cc1 | -0.5 | 0.6 | 6 | 0.69 | 1% | -1.3 | 0.9
56 | CN(C)c1ccc(NC(=O)CN2CCN(CC(=O)Nc3ccc(F)cc3)CC2)cc1 | -1.3 | 1.4 | 4 | 0.72 | 7%&5% | -1.1 | 0.6
57 | O=[N+]([O-])c1ccc(/C=C/c2ccncc2)cc1 | 1.0 | -2.1 | 8 | 0.67 | -6% | 1.5 | 7.0
58 | S=C(Nc1ccc(Cl)cc1)NC1CC2CCC(C1)N2Cc1ccccc1 (stereo not drawn) | 1.6 | -1.5 | -7 | 0.68 | · | -3.9 | 1.7
59 | Cc1ccc(C(=O)NCc2ccccc2)cc1Br | -1.0 | -0.3 | -2 | 0.68 | ? | 5.0 | 0.6
60 | COc1ccc(NC(=O)CSc2nnnn2C2CC2)cc1S(=O)(=O)N1CCOCC1 | -3.7 | 0.9 | 7 | 0.68 | · | 2.4 | 1.0

Continuation.
nr | Structure | HNF4A DNA FP | A1 inh | B2AR ag | Ecoli growth | Vif A3G | LANA-H2B inh | UCH37 DUB inh
61 | CS/C(=N\S(=O)(=O)c1cccs1)NC(=O)CSc1nc2ccccc2s1 | -4.5&-12 | -0.2 | 12&0 | 0.68&0.69 | 10%&0% | -0.8 | 5.5&1.6
62 | COC(=O)c1ccc(Cl)c(NC(=O)CN2CCN(Cc3ccccc3)CC2)c1 | -1.4 | -0.2 | 7 | 0.77 | 4% | -1.3 | -0.2
63 | COc1ccc(/C=C2\N=C(C)OC2=O)cc1OC | 2.3 | 1.1 | 3 | 0.67 | · | -1.8 | 4.2
64 | O=C(CN1CCCCC1)Nc1ccc(NC(=O)c2ccccc2Cl)cc1Cl | -3.2 | -1.0 | -3 | 0.68 | 5% | -0.1 | 4.9
65 | CCN(C(=O)CSc1ncnc2sc(C)c(C)c12)C1CCS(=O)(=O)C1 (stereo not drawn) | 0.6 | -0.4 | -7 | 0.69 | 21% | 0.5 | 0.5
66 | O=C(CCCC(=O)OCC(F)(F)C(F)F)Nc1nccs1 | -1.6 | 0.6 | 6 | 0.69 | 0% | -1.1 | 0.9
67 | O=C(CCc1nnc(Cc2ccc(-c3ccccc3)cc2)o1)NCCc1ccccn1 | -2.0 | 0.7 | -8 | 0.68 | 4% | 0.1 | -0.9
